Bioassay records (PubChem BioAssay)
eIF4H inh: inhibitors of RNA binding by human eIF4H. eIF4H fluorescence polarization binding assay. inhibition, % at 35 µM. 0.94% of 290,000 active. AID 2012;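 active means 50% or more with normal probe brightness, or confirmed in later tests; inconclusive means above 50% with abnormal brightness, or retests that disagree; inactive means below 50% or failed in later tests; about a fifth of its hits are not listed in these tables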;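 further: calls also rest on retests at 20 µM and on dose response follow-up; 0% = protein and probe with vehicle and 100% = probe without protein; strong numbers were not always called active; many hits fall short of the cut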
MT1-MMP act inh: MT1-MMP (human) activation inhibition; P50281; HT1080 RFP-PRO-GFP cells, GFP/RFP ratio fluorescence, overnight; percent of plate control window, DMSO zero; AID 651647; 0.061% of 360,000 active; GFP/RFP ratio change, % at 20 µM;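 active means GFP/RFP ratio change of at least 30% with cell ATP level not reduced by more than half and red fluorescence within 50% of control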; further: strong numbers were not always called active
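Test system: HT1080 RFP-PRO-GFP cells; Benchmarks: DMSO and RFP-L50D-GFP cell wells; Timing: cells overnight before dosing, compound overnight, 37 °C, 5% CO2; Compound: one 20 µM compound dose with 1% DMSO; Read-out: GFP/RFP fluorescence ratio.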
Rce1 inhib: yeast Ras-converting enzyme inhibition | yeast membranes, quenched prenylated peptide cleavage fluorescence | Q03530 | AID 2563 | 0.27% of 290,000 active | calls only;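 active means fall in fluorescence gain of 50% or more versus controls, with final raw signal at or below 3038400; inconclusive means same 50% fall but final raw signal above 3038400; inactive means fall in fluorescence gain under 50%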;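 further: plate controls were neutral control wells for no effect and wells lacking membranes for full effect; tested at 10 µM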
CSC inhib: blocks cancer stem cells. cancer stem cell-like cells viability, luminescence. inhibition, % at 7.5 µM. 1.1% of 300,000 active. AID 2717;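 active means mean at 75% or more and at least half the replicates too; inconclusive means mean and replicates disagree; tested in HMLE shEcad cells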;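 further: 0% = median of negative and 100% = median of positive control wells; the first replicate is given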
PABP polyA inh: blocks human PABP binding to poly(A) RNA | P11940 | fluorescence polarization | inhibition, % at 35 µM | 1% of 290,000 active | AID 2014;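 active means 50% or more with normal probe brightness, or confirmed in later tests; inconclusive means above 50% with abnormal brightness, or retests that disagree; inactive means below 50% or failed in later tests; about a fifth of its hits are not listed in these tables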;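 further: calls also rest on retests at 20 µM and on dose response follow-up; controls were probe without protein and protein plus probe with vehicle; some compounds called inactive have numbers as strong as hits; many hits fall short of the cut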
Target sequence (P11940 whole entry, looked up): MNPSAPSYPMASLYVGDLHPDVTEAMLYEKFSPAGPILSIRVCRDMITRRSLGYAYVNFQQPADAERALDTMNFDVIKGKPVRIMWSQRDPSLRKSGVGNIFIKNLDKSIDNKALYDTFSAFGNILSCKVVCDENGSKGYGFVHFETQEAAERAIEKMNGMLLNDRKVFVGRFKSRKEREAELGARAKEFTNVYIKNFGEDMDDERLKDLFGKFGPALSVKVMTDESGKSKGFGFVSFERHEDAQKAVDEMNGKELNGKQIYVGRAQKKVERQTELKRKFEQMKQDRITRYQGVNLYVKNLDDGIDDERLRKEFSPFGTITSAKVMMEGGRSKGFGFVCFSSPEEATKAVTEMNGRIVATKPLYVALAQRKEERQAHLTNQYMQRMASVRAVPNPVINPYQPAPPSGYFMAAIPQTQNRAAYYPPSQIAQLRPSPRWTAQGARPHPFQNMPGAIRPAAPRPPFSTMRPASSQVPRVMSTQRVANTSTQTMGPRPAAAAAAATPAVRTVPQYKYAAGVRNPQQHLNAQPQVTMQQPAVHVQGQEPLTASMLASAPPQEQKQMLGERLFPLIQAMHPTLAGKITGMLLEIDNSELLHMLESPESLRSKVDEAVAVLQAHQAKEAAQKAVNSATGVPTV
Yeast UUG start: alters start codon recognition fidelity in yeast. S. cerevisiae UUG-firefly luciferase reporter, luminescence/redox ratio. activity score, % at 18.7 µM. 0.13% of 350,000 active;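 active means replicate mean at a twofold rise or more, about +100% in these data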;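 further: firefly luciferase made from a UUG start codon reports start codon fidelity; reporter light over untreated wells divided by growth signal over untreated wells; some hits fall short of that in this replicate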
Env fusion inh: HIV envelope-mediated fusion inhibition; 1.1% of 360,000 active; HeLa-JRFL Env/CEM21 cell fusion, luciferase; inhibition, % at 12.3 µM;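 active means mean replicate inhibition score of at least 50 and every replicate individually at or above 50; inconclusive means only one of the two criteria met; inactive means mean below 50 and not all replicates reaching 50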;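 further: 0% = plate neutral controls and 100% = maraviroc near 300 nM; one replicate is shown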
MT1-MMP act inh RFP: further read-out of MT1-MMP act inh, marked with its call; RFP signal change, %; measured here: RFP expression control read;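 0 = vehicle wells; hits needed this value within 50% of zero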
Starred values were filed as active, the others as inactive; i = inactive; ? = inconclusive; · = no result given; & = joins results of further samples; [ ] = another dose, or the depositor's remark. Some of the compounds tested; rates above refer to the full screens.

SMILES	eIF4H inh	MT1-MMP act inh	MT1-MMP act inh RFP	Rce1 inhib	CSC inhib	PABP polyA inh	Yeast UUG start	Env fusion inh
COC(=O)[C@H](Cc1ccccc1)NC(=O)C1(OC(C)=O)CC(OC(C)=O)C(OC(C)=O)C(OC(C)=O)C1 (stereo partly drawn)	-1	4	1	i	-7	8	-3	-54
O=C(NC(=O)c1ccccc1)OCC(F)(F)F	2	-7	2	i	-9	0	-30	·
Cc1cc(F)ccc1S(=O)(=O)Nc1nc2ccccc2nc1Cl	36	-3	0	i	-7	22	-11	2
COc1ccc(S(=O)(=O)NCC2CCCN(C(=O)c3cccnc3)C2)cc1 (stereo not drawn)	0	-1	-1	i	-3	1	·	-3
C=CCc1ccc(OC(=O)c2ccccc2)c(OC)c1	-6	-2	2	i	-6	5	-12	·
COC(=O)c1ccc2ccccc2n1	·	2	2	i	2	·	-20	·
O=C(Nc1ccc(Br)cc1)c1ccc(N2C(=O)C3CC=C(Cl)CC3C2=O)cc1 (stereo not drawn)	-2	-1	-9	i	9	-10	·	·
O=C(N/N=C/c1ccc2c(c1)OCO2)c1cccs1	7	-3	-3	i	-3	-4	34	-87
O=C(Cn1c(=O)[nH]c2sc3c(c2c1=O)CCCC3)NCC1CCCO1 (stereo not drawn)	-18	-5	-2	i	-6	-12	-7	-6
CN(C(=O)COC(=O)C12CC3CC(CC(C3)C1)C2)c1c(N)n(Cc2ccccc2)c(=O)[nH]c1=O	·	-4	-4	·	7	·	-21	11
CN(C)c1ccc(C(=O)Nc2cccc(S(=O)(=O)NC3=NCCCCC3)c2)cc1	·	1	-4	·	-7	·	-6	·
CC(c1ccccc1)N1C(=O)NC(NC(=O)C(C)(C)C)(C(F)(F)F)C1=O (stereo not drawn)	-5	-2	0	i	-4	-16	·	-3
COc1ccc(-c2noc(CCC(=O)NC3CCCCCC3)n2)cc1	-8	3	-3	i	-22	-2	-4	0
O=C(N/N=C/c1ccc2c(c1)OCO2)c1ccc(Cn2cc([N+](=O)[O-])cn2)o1	4	3	1	i	-9	11	·	0
CCOC(=O)c1c(C)nc(-c2ccccc2)nc1NC(=O)C(C)C	-8	0	1	i	16	1	-2	-210
Cc1nc2cc(Cl)c(Cl)cc2n1-c1ccccn1	·	1	-2	i	-6	·	-17	1
Cc1nn(C)cc1S(=O)(=O)N1CCN(c2ccccc2F)CC1	-5	0	3	i	-2	7	9	-5
CCCCCCCN1C(N(C)C)=NC[C@@H]1Cc1ccccc1	·	1	-2	·	29	·	-13	-19
O=C(c1cc2nc(C3CC3)cc(C(F)F)n2n1)N1CCOCC1	39	0	1	i	-8	35	-11	·
COC(=O)CC1=C(C(=O)OC)C(c2cccs2)C(C#N)=C(N)O1 (stereo not drawn)	28	-14	3	i	-12	15	-5	-10
COc1ccccc1Cc1nc(-c2ccc(Br)o2)no1	-2	-1	4	i	-2	-7	13	7
O=C(Nc1cccnc1Cl)c1cc(-c2cccc(Cl)c2)on1	4	4	3	i	10	1	-11	-22
Cc1cccc(N2C(=O)NC3(CCCCC3)C2=O)c1	-4	2	0	i	15	4	-5	-25
CC(C)NC(=O)N(C)C[C@@H]1Oc2cc(C#Cc3ccccn3)ccc2S(=O)(=O)N([C@@H](C)CO)C[C@H]1C	·	0	1	·	·	·	16&-1&-1	1
O=C(N/N=C/c1ccsc1)c1cc(O)cc(O)c1	8	1	3	i	3	-8	-14	·

Additional records:
SMILES	eIF4H inh	MT1-MMP act inh	MT1-MMP act inh RFP	Rce1 inhib	CSC inhib	PABP polyA inh	Yeast UUG start	Env fusion inh
Cc1ccc([C@@H]2[C@@H]3C(=O)N(C)C(=O)[C@@H]3[C@]3(C)C(=O)N(CCO)CC(=O)N23)o1	-18	0	1	i	0	-8	-8	-18
Cc1onc(-c2ccccc2Cl)c1C(=O)Nc1cccc(-c2cn3cccnc3n2)c1	-5	3	-4	·	-10	1	-1	·
Cc1cc(C)cc(N2CC(C(=O)Nc3cc(C)on3)CC2=O)c1 (stereo not drawn)	-12	0	0	·	-15	0	42	-3
O=C(CCN1C(=O)C2C3C=CC(C3)C2C1=O)N1CCCCC1 (stereo not drawn)	-2	2	7	i	-1	0	·	-12
O=C(CSc1nn(-c2ccccc2)c(=S)s1)Nc1ncccn1	9	-2	5	i	2	4	·	6
O=C(O)CCCC(=O)OCc1c(-c2ccccc2)ncc2ccccc12	·	1	0	·	8	·	6	20
CCOC(=O)C1CCCN(C(=O)Cn2ncc3c([nH]c4ccccc43)c2=O)C1 (stereo not drawn)	-1	-4	-1	i	-10	-4	-29	4
CC1CCCCC1NC(=O)COC(=O)c1ccc2c(c1)OCCO2 (stereo not drawn)	·	-4	-1	·	·	·	-4	-8
Cc1cccc(NC(=O)c2ccc(S(=O)(=O)N(C)C)cc2)c1	-6	-2	-2	i	0	-5	-5	3
CN(C)C(=O)c1noc2cc([N+](=O)[O-])ccc12	-3	5	1	i	-10	-3	-17	-32
COc1ccc(/C=N/S(=O)(=O)c2ccccc2)cc1OC	11	0	0	i	-15	-1	-9	-12
COc1cc(/C=C/C(=O)c2ccc([N+](=O)[O-])o2)ccc1O	·	-5	-12	i	5	·	-17	-297
C[C@@H]1CN([C@@H](C)CO)C(=O)c2cc(-c3cccnc3)cnc2O[C@H]1CN(C)C(=O)c1cccc(F)c1	·	-3	3	·	·	·	-3&-6&-7	-9&2[16.7 µM]
CC1(C)CC(=O)N(c2cc(Cl)cc(Cl)c2)C(=O)C1	5	-1	1	i	10	1	-13	-6
CC(=O)Nc1ccc(S(=O)(=O)N(C)CC(=O)OCC(=O)c2ccc[nH]2)cc1	·	0	1	·	-11	·	·	-6
COc1ccc(/C=C/c2nnc(NC(=O)CSc3ccc(C)cc3)s2)cc1	-7	0	-7	i	·	6	-2	3
CC(CCc1ccccc1)NC(=O)c1ccc2nc(N3CCOCC3)sc2c1 (stereo not drawn)	9	3	-12	·	6	-1	5	3
COc1cc(N2CCCC2)ccc1C=O	6	-1	-2	i	-7	1	·	5
COc1ccc(OCC(=O)NNC(=O)Cc2coc3cc(OC)ccc23)cc1	-1	-2	0	i	-12	44	1	15
CC(=O)N1CCN(C(=O)c2cc(C)nc3ccccc23)CC1	-1	0	3	i	-12	-5	·	17
COc1ccc(/C=C/C(=O)O)cc1S(=O)(=O)N1CCCc2ccccc21	12	6	2	i	-17	23	-9	4
CCC(=O)Nc1ccc(N2CCN(C(=O)c3ccccc3C)CC2)cc1	-17	5	-1	i	-1	-3	12	3
COC(=O)CSc1nc2ccc(NC(C)=O)cc2s1	-1	-6	4	i	-2	-6	9	-68
COc1ccccc1OCCNC(=O)C(=O)c1c[nH]c2ccccc12	-4	-4	2	i	-2	7	-11	15
CCOc1ccc(C(=O)N[C@H](C(=O)Nc2ccc(OC)c(S(=O)(=O)N3CCOCC3)c2)C(C)C)cc1	4	-6	-10	i	-10	-1	·	17

Next part (2 carried over from the part before).
SMILES	eIF4H inh	MT1-MMP act inh	MT1-MMP act inh RFP	Rce1 inhib	CSC inhib	PABP polyA inh	Yeast UUG start	Env fusion inh
COc1ccccc1OCCNC(=O)C(=O)c1c[nH]c2ccccc12	-4	-4	2	i	-2	7	-11	15
CCOc1ccc(C(=O)N[C@H](C(=O)Nc2ccc(OC)c(S(=O)(=O)N3CCOCC3)c2)C(C)C)cc1	4	-6	-10	i	-10	-1	·	17
COc1ccc(-n2ccc(=O)c3c2CCCC3=O)cc1	-14	-7	-7	i	-6	-5	-13	·
COC(=O)c1ccc(NC(=O)CCS(=O)(=O)c2ccc(Br)s2)cc1	-10	3	3	·	3	-5	·	-21
CCCc1nc(SCc2ccc(OCC)cc2)n[nH]1	-12	1	-8	i	-7	1	-9	-22
Cc1ccc(OCc2cc(C(=O)NC(C)Cc3cnccn3)no2)cc1C (stereo not drawn)	2	-4	-5	i	8	4	-3	3
COc1ccc(N(C(=O)c2ccccc2OC(C)=O)C(C)C2CC2)cc1 (stereo not drawn)	-5	3	7	i	-12	4	-5	30
CCN(CC)S(=O)(=O)c1cccc(NC(=O)c2ccc(SC)cc2OC)c1	3	4	-15	i	·	-2	-15	13
CC(C)(C)c1ccc(-n2ncc3c2CCCC3NC(=O)CCCn2cncn2)cc1 (stereo not drawn)	7	0	-18	i	·	23	-16	0
Cc1cc2nc(-c3ccc(SCC(=O)Nc4ccc(S(=O)(=O)N5CCCC5)cc4)nc3)[nH]c2cc1C	14	0	5	i	22	-2	-18	-129
CSc1ccc(CCNC(=O)c2cccc3c2C(=O)N(C2CCCCC2)C3)cc1	8	3	-1	i	-9	8	-11	·
O=C(CNC(=O)c1cccc(Cl)c1)Nc1ccc(F)c(F)c1F	-10	-2	-3	i	-15	-2	-8	1
O=C(CNC(=O)c1cccs1)OCC(=O)c1ccc(Br)cc1	4	2	3	i	-14	-4	·	-1
COc1ccc(O)c(/C=N/Nc2nc(Nc3ccccc3)nc(-n3nc(C)cc3C)n2)c1	-4	-29	-24	i	92*	4	·	·
C/C(=N\NC(=O)CNC(=O)c1ccc(F)cc1)c1ccco1	12	0	2	i	-27	-3	-27	1
Cc1ccc(C(=O)N/C(=C/c2ccc(-c3cc(C(F)(F)F)ccc3Cl)o2)C(=O)NCc2cccnc2)cc1	-11	-15	-5	·	25	-17	-15	-46
COc1ccc(/C=N\NC(=O)c2ccc(-c3ccccc3)cc2)c(OC)c1OC	-11	6	7	i	6	-2	-16	-2
CCOC(=O)c1c(NC(=S)NC)sc2c1CCCC2	1	-1	0	i	-6	2	-11	-11
CN1C(C)(C)CC(NC(=O)CCC(=O)NC2CC(C)(C)N(C)C(C)(C)C2)CC1(C)C	·	-2	4	i	13	·	·	·
Cc1ccc(N2CCN(C(=O)c3nn(C)c4c3CS(=O)(=O)c3ccccc3-4)CC2C)cc1 (stereo not drawn)	-7	2	-4	i	-9	-5	·	5
O=C(/C=C/c1ccco1)N1CCN(S(=O)(=O)c2cccs2)CC1	29	1	2	i	-7	6	-2	9
COc1ccccc1-n1c(SCC(=O)Nc2ccccc2F)nc2[nH]ncc2c1=O	-3	-2	-3	i	-12	-4	·	-1
CCOc1ccccc1NC(=O)COC(=O)c1cc[n+]([O-])cc1	-2	3	1	i	7	10	-15	-15
CC1CCc2nn(CC(=O)NCc3ccco3)cc2C1 (stereo not drawn)	-1	2	7	i	4	-7	-3	-8
COc1ccc(C)cc1NC(=O)N1CCCc2ccccc21	-3	-2	-2	·	-12	5	·	3
COc1ccc(/C=C2\SC(=S)N(CCC(=O)NC3CCCC3)C2=O)cc1OC	8	0	-3	i	2	2	-7	0
C=CCn1c(CNC(=O)c2ccco2)nnc1SCC(=O)c1ccc(F)cc1	6	7	10	i	-3	8	-12	-7
CCc1ccc(C(=O)Nc2cccc(-c3nn[nH]n3)c2)s1	-8	0	5	i	-3	3	-15	·
COc1cccc(-c2ccc3c(c2)N(Cc2cccc(F)c2)C(=O)C(C)S3)c1 (stereo not drawn)	·	-9	-11	·	·	·	-14	?
COC(=O)c1ccccc1NC(=O)CNC(=O)c1ccco1	-6	1	4	i	1	5	-6	·
CC(C)(C)c1ccc(/C=C(\C#N)C(=O)Nc2ccccn2)cc1	1	3	4	i	-10	0	15	7

Reprinted at random: 3 entries already listed, in no set order.
SMILES	eIF4H inh	MT1-MMP act inh	MT1-MMP act inh RFP	Rce1 inhib	CSC inhib	PABP polyA inh	Yeast UUG start	Env fusion inh
COc1ccc(/C=C/C(=O)O)cc1S(=O)(=O)N1CCCc2ccccc21	12	6	2	i	-17	23	-9	4
COC(=O)c1ccc(NC(=O)CCS(=O)(=O)c2ccc(Br)s2)cc1	-10	3	3	·	3	-5	·	-21
Cc1nn(C)cc1S(=O)(=O)N1CCN(c2ccccc2F)CC1	-5	0	3	i	-2	7	9	-5
